gsp antag – qHTS for Antagonists of gsp, the Etiologic Mutation Responsible for Fibrous Dysplasia/McCune-Albright Syndrome: qHTS; gsp-mutant cells, cAMP HTRF, 30 min; control for the full effect not named in the record; AID 624288, 2012; Potency, µM (highest dose often 76.9 µM), for the others: at the top dose activity change, negative = inhibition, hits mostly inhibitors; hit rate 0.4% among 340,000; active = falling curve of any shape with a large fitted effect; inconclusive = falling curve, mostly with a smaller effect; inactive = flat or rising curve; cell line not stated here;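 also: intracellular cAMP measured with PDE inhibitor Ro 20-1724 present during compound exposure; potency is read from the fitted curve at half-maximal effect; % is scaled to controls: 0 for no effect and ±100 for the full control effect; nearly all actives have a fitted effect of over 65% in size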
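Cells, 2000/well, grown 16–24 h in DMEM 10% FBS with 0.5 mg/ml G418, then compounds plus […] (300 uM addition stock), 30 min at 37C. cAMP read by HTRF (cAMP-d2 and anti-cAMP antibody-K in lysis buffer) after 30 min RT.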
Sfp inh – qHTS Assay for Inhibitors of Bacillus subtilis Sfp phosphopantetheinyl transferase (PPTase); 4'-phosphopantetheinyl transferase ffp (Bacillus subtilis), Q9F4F7; Biochemical Sfp PPTase activity, qHTS; Potency, µM, for the others: max response, negative = inhibition, most hits filed as inhibitors; hit rate 3.5% among 310,000; AID 1490, 2009; active = well fitted inhibition curve with a large enough effect; inconclusive = small, poorly fitted or top-dose-only effect, or another doubt; inactive = no such curve, though single readings can be large or run the other way;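 also: the enzyme is Sfp with the accession as filed and its product quenches rhodamine fluorescence; potency is read from the fitted curve at half-maximal effect; 0% = enzyme reaction without inhibitor and -100% = no enzyme wells; top concentration of the series not given in the record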
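Sfp 15 nM + cpd, 15 min RT; start w/ rhodamine-CoA 5 uM, BHQ-2-YbbR 12.5 uM (final); 50 mM Hepes pH 7.6, 10 mM MgCl2, 0.01% NP-40, 0.01% BSA; read 525/598 nm at 0 and 30 min.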
D2 PAM – Beta-Arrestin HTS for Positive Allosteric Modulators of the Human D2 Dopamine Receptor: Potentiators. D(2) dopamine receptor (Homo sapiens), P14416. DiscoveRx D2 beta-arrestin cells, luminescence, 90 min; 100% = 57 uM dopamine signal. potentiation, % (concentration not given with the values). hit rate 0.23% among 360,000. AID 624464, 2012; active = potentiation of 50% or more; inconclusive = 30% to 50%; inactive = 30% or less;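 also: compound concentration not given in the record; tested on top of an EC20 dose of dopamine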
Target sequence (P14416 whole entry, looked up): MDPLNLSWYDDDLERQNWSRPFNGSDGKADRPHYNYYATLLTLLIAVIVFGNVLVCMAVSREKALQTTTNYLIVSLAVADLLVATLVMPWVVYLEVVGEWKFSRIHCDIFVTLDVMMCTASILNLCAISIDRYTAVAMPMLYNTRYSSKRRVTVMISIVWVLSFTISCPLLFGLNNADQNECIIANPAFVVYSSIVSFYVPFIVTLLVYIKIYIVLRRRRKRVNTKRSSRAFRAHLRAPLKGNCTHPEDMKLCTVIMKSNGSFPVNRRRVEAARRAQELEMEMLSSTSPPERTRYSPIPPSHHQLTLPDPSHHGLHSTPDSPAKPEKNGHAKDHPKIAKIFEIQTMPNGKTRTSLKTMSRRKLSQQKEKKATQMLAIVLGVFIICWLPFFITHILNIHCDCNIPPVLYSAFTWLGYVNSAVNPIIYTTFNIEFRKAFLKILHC
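PathHunter D2 cells, attached overnight at 37 deg C, received compound in DMSO plus dopamine at EC20 (50 nM final) for 90 min at 37 deg C. Beta-arrestin recruitment was read as luminescence after 1 h with detection reagent at ambient temperature.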
TRPV1 PAM – HTS Assay for Compounds that Act as Potentiators of the Vanilloid Receptor 1; hit rate 0.02% among 320,000; potentiation, % at 8.33 µM; TRPV1-expressing cells, Fluo-8 calcium influx, capsaicin EC20 potentiation; host cell line not named in the record; control for the full effect not named in the record; Transient receptor potential cation channel subfamily V member 1 (Homo sapiens), Q8NER1; active means potentiation above 80%; inconclusive means 30% to 80%; inactive means below 30%; also: 0% is about no effect
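TRPV1-expressing cells were cultured overnight at 35.5C and loaded with Fluo-8 calcium dye for 40 to 90 min at room temperature. After a 10 s baseline, compound was added and calcium influx was read kinetically for 3 min (ex 480/em 520 nm).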
ClpP mod – qHTS Assay for Activators of ClpP; Potency, µM (series often up to 57.5 µM), for the others: at the top dose activity change, negative = active; ATP-dependent Clp protease proteolytic subunit (Bacillus subtilis (strain 168)), P80244; purified B. subtilis ClpP, FRET peptide cleavage, 20 min; AID 651965, 2013; hit rate 1.9% among 340,000; active = well fitted falling curve with a large enough effect; inconclusive = small, poorly fitted or top-dose-only effect; inactive = no such curve, though single readings can be large or run the other way; also: potency is read from the fitted curve at half-maximal effect; the source files actives as falling curves though it sought activators and does not explain the sign; nearly all actives have a fitted effect of over 65% in size; many hits overshoot -100%
Target sequence (P80244 whole entry, looked up): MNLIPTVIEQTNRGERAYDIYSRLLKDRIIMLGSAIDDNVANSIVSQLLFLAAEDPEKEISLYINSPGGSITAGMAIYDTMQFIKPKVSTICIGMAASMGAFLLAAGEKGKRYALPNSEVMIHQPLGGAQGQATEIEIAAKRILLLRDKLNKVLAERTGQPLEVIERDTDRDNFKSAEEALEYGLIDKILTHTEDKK
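ClpP 10 microg/mL final, pH 8 Tris/KCl buffer with BSA, glycerol, Tween-20; compound pinned in; FRET-FV substrate; RT 20 min; Ex320/Em430; ΔFRET vs ADEP 5.8 microM, DMSO, no enzyme.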
Menin MLL FP FL – qHTS Assay for Inhibitors Targeting the Menin-MLL Interaction in MLL Related Leukemias: Competition With Fluorescein Labeled MLL-derived Peptide; FP activity change, % at 61.4 µM; Fluorescence polarization, fluorescein-MLL peptide displacement from menin; 290,000 tested, under 10 active; inconclusive = falling polarisation curve, or a change in total fluorescence; inactive = total fluorescence flat and polarisation flat or rising; no compound was filed as active; the % refers to the polarisation; negative = inhibition;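 also: % of control where 0% means no effect; inhibitors lower the polarisation; unlabelled MLL peptide was the positive control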
gsp agonist – qHTS for Agonist of gsp, the Etiologic Mutation Responsible for Fibrous Dysplasia/McCune-Albright Syndrome: qHTS | gsp mutant cells, cAMP HTRF, 30 min; control for the full effect not named in the record | Potency, µM (top dose mostly 76.9 µM), without a hit: top-dose activation (cAMP increase), usual class: activators | hit rate 0.13% among 340,000; active = well fitted activation curve with a large enough effect; inconclusive = small, poorly fitted or top-dose-only effect, or another doubt; inactive = no such curve, though single readings can be large or run the other way; cell line not stated here;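 also: phosphodiesterase inhibitor Ro 20-1724 added with compounds to block cAMP breakdown; potency is read from the fitted curve at half-maximal effect; nearly all actives have a fitted effect of over 60% in size; about a fifth of the inactives were tested at one dose only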
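Cells in DMEM/10% FBS with G418 were pretreated with compounds in DMSO plus […] (300 uM stock) for 30 min at 37C. cAMP was measured by HTRF (cAMP-d2 plus anti-cAMP antibody-K) after 30 min at room temperature.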
Numbers without * were called inactive; ? = inconclusive; . = not tested or not shown; [ ] = another dose, or the depositor's remark. This is a random part of the collection. About 5.1% of those tested had a hit in this group.

SMILES | gsp antag | Sfp inh | D2 PAM | TRPV1 PAM | ClpP mod | Menin MLL FP FL | gsp agonist
C/C(=N\Nc1ccc([N+](=O)[O-])cc1)c1ccc(-n2nncc2C(C)(C)C)cc1 | 12% | -1% | 0 | 14 | . | 3.4 | -1%[15.4 µM]
Cc1ccccc1CNC(=O)c1ccccc1NS(C)(=O)=O | 6% | 16% | -3 | -20 | . | 1.7 | -38%[15.4 µM]
COC(=O)C1=C(C)NC(C)=C(C(=O)O[C@@H]2CCCN(Cc3ccccc3)C2)[C@@H]1c1cccc([N+](=O)[O-])c1 | -22% | . | -27 | . | -3.4% | . | .
C=CCN1C(=NC(=O)CCCC(=O)O)SC2CS(=O)(=O)CC21 (stereo not given) | -11% | 5% | 1 | 2 | 0.6% | 1.2 | -36%[inhibitor]
Cc1ccc(-n2nc3c(c2NC(=O)C2CCCC2)CS(=O)(=O)C3)cc1 | 6% | 0% | -9 | -15 | 0.8% | 5.6 | 8%
Cc1ccnc2nc(C(=O)NC3=NCCS3)nn12 | 4% | 13% | -14 | 4 | 1.2% | 3.1 | -21%
CCN1CCN(C(=O)c2cc3c(=O)n4ccccc4nc3n2Cc2ccccc2)CC1 | . | 12% | . | -2 | . | 1.7 | .
CCCn1cc(C(CC(=O)O)C(=O)O)c2ccccc21 (stereo not given) | 7% | 5% | -3 | -4 | ? | 0.4 | -11%
CC(C)c1ccccc1NC(=O)c1cccc(NC(=O)c2ccccc2)c1 | -4% | 14% | -12 | -7 | 0.1% | 0.1 | -5%
O=C1CC(c2ccc(F)cc2)c2cc3c(cc2N1)CCC3 (stereo not given) | 0% | -6% | -16 | -9 | -1.9% | 0.1 | ?
Cc1nc(C)n(CC(=O)N2CCCC(C(=O)c3cccc4ccccc34)C2)n1 (stereo not given) | -7% | 15% | -3 | 2 | . | 1.6 | 12%[15.4 µM]
CC(=O)c1ccc(-n2c(CCC(=O)O)ccc2-c2ccc(C)cc2)cc1 | ? | 4% | -6 | 15 | . | 3.2 | -7%

Four compounds out of the list above, arranged by the value under Sfp inh, low to high:
SMILES | Sfp inh
C/C(=N\Nc1ccc([N+](=O)[O-])cc1)c1ccc(-n2nncc2C(C)(C)C)cc1 | -1%
Cc1ccc(-n2nc3c(c2NC(=O)C2CCCC2)CS(=O)(=O)C3)cc1 | 0%
C=CCN1C(=NC(=O)CCCC(=O)O)SC2CS(=O)(=O)CC21 (stereo not given) | 5%
Cc1nc(C)n(CC(=O)N2CCCC(C(=O)c3cccc4ccccc34)C2)n1 (stereo not given) | 15%

Continued:
SMILES | gsp antag | Sfp inh | D2 PAM | TRPV1 PAM | ClpP mod | Menin MLL FP FL | gsp agonist
COc1ccc(C(=O)CC(=O)C(=O)Nc2cccc([N+](=O)[O-])c2C)cc1 | -7% | -4% | -6 | 14 | . | -1.1 | -16%
COc1cc2cncc(Cc3ccccc3)c2cc1O | -6% | . | -17 | . | 0.6% | . | 3%[15.4 µM]
COc1c(C)cc(Br)cc1C(=O)NC(=S)Nc1ccc(Cl)c(C(=O)O)c1 | . | -16% | 4 | -4 | . | 1.9 | 3%[15.4 µM]
COc1ccc(NC(=O)C(OC(=O)c2ccc([N+](=O)[O-])o2)c2ccccc2)cc1Cl (stereo not given) | 8% | 16% | ? | 7 | -2.4% | 7.0 | 11%
CSc1ccc(S(=O)(=O)N2CCC(C(=O)NCc3ccncc3)CC2)cc1 | -22% | 16% | -8 | -1 | . | 9.1 | -5%[15.4 µM]
Nc1nonc1C(=O)OCC(=O)c1ccc(Cl)cc1 | 20% | 16% | -11 | -2 | -0.4% | -0.1 | -3%[15.4 µM]
CC(=O)Nc1ccc(Nc2nnc(-c3ccc(O)cc3)c3ccccc23)cc1 | -31% | 1% | -7 | 9 | 3.2% | -5.6 | 19%[15.4 µM]
CCCC(=O)NC1=C(C#N)C2(CCCCC2)Cc2ccccc21 | -11% | 2% | 2 | -3 | -2.3% | 1.2 | -4%
CC1CCCC(C(=O)O)N1C(=O)CCSC(=O)c1ccccc1 (stereo not given) | -14% | 25% | -4 | -3 | 0.2% | 0.9 | 24%
O=C(NC1CCS(=O)(=O)C1)OC1CCCCC1 (stereo not given) | 3% | 16% | -6 | -6 | -2.9% | 1.3 | -9%
CCc1ccccc1N(C(C)=O)c1nc(CCl)cs1 | -7% | 17% | 1 | 7 | 2.0% | 2.6 | 16%
Cn1cc(S(=O)(=O)Nc2ccc(OC(F)(F)F)cc2)c(=O)n(C)c1=O | -4% | 10% | 12 | -16 | . | 4.3 | 26%
c1cc(-c2cc3cc(N4CCOCC4)ccc3o2)cs1 | 9% | . | 3 | . | 5.5% | . | .
O=C(NNS(=O)(=O)c1ccccc1)c1cccnc1 | -2% | -6% | 1 | 0 | 1.2% | 2.8 | -10%
Cc1ccc2nc(C)cc(C(=O)N/N=C/c3ccncc3)c2c1 | 7% | 11% | -7 | -4 | -9.4% | -0.9 | 2%
CC(NC(=O)C12CC3CC(CC(C3)C1)C2)C(=O)N/N=C/C1=C(N2CCOCC2)C(=C\c2cccc([N+](=O)[O-])c2)/CC1 (stereo not given) | -1% | -3% | -3 | 8 | -1.3% | . | -21%[15.4 µM]
Cc1cc(C)cc(NS(=O)(=O)c2ccc3[nH]cc(C(=O)N4CCc5ccccc54)c(=O)c3c2)c1 | 6% | -7% | 6 | -3 | -4.4% | 6.0 | 1%
CC[C@@]1(C(=O)OC)N[C@H](CN(C)C(=O)Nc2ccc(Cl)cc2)[C@@H]2C(=O)N(C)C(=O)[C@@H]21 | 4% | . | -1 | . | 0.1% | . | .
O=C(Cc1ccccc1)N[C@@H](Cc1ccccc1)C(=O)O | 3% | -3% | -6 | -8 | -0.8% | -3.0 | -13%
COc1ccccc1C1/C(=C(/O)c2ccc(C)cc2)C(=O)C(=O)N1CC(C)O (stereo not given) | 12% | 20% | 12 | -1 | 28µM* | 4.0 | 23%
Cc1ccc(C)c(NC(=O)N2CCCCCC2)c1 | 12% | 9% | -17 | 29 | -1.5% | -1.1 | 20%
O=C(NNc1cccc(Cl)n1)Nc1ccccc1 | 6% | -13% | 2 | 0 | 0.5% | 0.7 | -3%
Cc1ccc(N2C(=O)c3ccc(C(=O)O)cc3C2=O)cc1C | -14% | -3% | -5 | -5 | 0.0% | -1.9 | -11%
O=C(Cn1cnc2ccc(Cl)cc2c1=O)c1cccs1 | -1% | 3% | -12 | . | -0.9% | 2.0 | 20%
O=C(c1ccco1)N1CCN(Cc2nc3ccccc3c(=O)n2-c2ccc(F)cc2)CC1 | -6% | 13% | -5 | ? | -0.5% | -5.3 | 2%
CC(=O)c1ccc(NC(=O)Cc2cccs2)cc1 | -4% | 5% | -5 | -3 | . | 15 | -4%
Cc1c(C(=S)NC(=O)C2CC2)c(=O)n(-c2ccccc2)n1C | -21% | -22% | 14 | -8 | -1.7% | ? | -15%
N#CCCN(Cc1cccnc1)CN1C(=O)c2ccccc2C1=O | . | . | -16 | . | -1.8% | . | 12%
Cc1nn(C)cc1/C=N/n1nnnc1N | -10% | 16% | 7 | 14 | 0.0% | 2.9 | 12%
COc1ccccc1NS(=O)(=O)c1cc(NC(=O)c2ccc3ccccc3n2)ccc1Cl | -9% | 7% | 10 | 14 | -0.3% | 3.5 | -2%
Cc1ccccc1NC(=O)c1ccc2ccccc2c1 | -6% | 8% | -5 | -27 | -2.0% | 1.2 | -1%[15.4 µM]
Cc1ccc(NC(=O)c2nc[nH]c2C(=O)N2CCc3ccccc3C2)cc1 | 5% | . | -21 | -7 | 28% | . | 1%
Cc1ccc(NC(=O)c2cccc(S(C)(=O)=O)c2)cc1 | 2% | 12% | -9 | -12 | . | 0.5 | -1%[15.4 µM]
CC(=O)c1ccc(Nc2nc3ccc(C)cc3n3cnnc23)cc1 | -1% | 4% | 8 | -32 | . | 16 | -3%
CCOC(=O)N1CCN(Cc2nc(N)nc(Nc3ccccc3C)n2)CC1 | -5% | 7% | 11 | -7 | 1.6% | -0.7 | -1%
C/C=C\C=C\C(=O)N1CC2(CC(c3cccc(NC(=O)COc4ccc(Cl)cc4)c3)=NO2)C[C@H]1C(N)=O (stereo not given in full) | 0% | 28µM* | -1 | ? | -1.9% | 4.7 | -4%
COc1ccc(C(CNC(=O)c2ccc(S(=O)(=O)N3CCOCC3)cc2)N2CCCCC2)cc1 (stereo not given) | 16% | 4% | -15 | -5 | 1.8% | 2.4 | -32%[inhibitor]
Cn1nnnc1SCCNCc1ccccc1OCc1ccccc1Cl | 6% | 14% | -18 | 0 | . | -0.4 | -16%[15.4 µM]
COc1ccc(N2CCN(C(=O)CCc3ccc(S(=O)(=O)NC(C)C)cc3)CC2)cc1 | -11% | -1% | -7 | -28 | 0.4% | -4.4 | -37%[inhibitor]
Cc1ccc(S(=O)(=O)N2CCCC2)cc1C(=O)N1CCC(C)CC1 | 11% | 6% | -7 | 9 | 2.9% | . | -1%[15.4 µM]
[O-]/[N+](=C\c1ccccc1)c1ccc(Br)cc1 | 2% | . | -8 | 24 | 0.7% | . | -52%[inhibitor]

Sorted by length of the SMILES (rising): some entries from above
SMILES | gsp antag | Sfp inh | D2 PAM | TRPV1 PAM | ClpP mod | Menin MLL FP FL | gsp agonist
Cn1nnnc1SCCNCc1ccccc1OCc1ccccc1Cl | 6% | 14% | -18 | 0 | . | -0.4 | -16%[15.4 µM]
[O-]/[N+](=C\c1ccccc1)c1ccc(Br)cc1 | 2% | . | -8 | 24 | 0.7% | . | -52%[inhibitor]
Cc1ccc(S(=O)(=O)N2CCCC2)cc1C(=O)N1CCC(C)CC1 | 11% | 6% | -7 | 9 | 2.9% | . | -1%[15.4 µM]
